# Bioassay records from PubChem.
# VACV mCherry inh: qHTS for Stage-Specific Inhibitors of Vaccinia Orthopoxvirus: mCherry Reporter Primary qHTS | Vaccinia virus mCherry reporter infection, fluorescence; about a quarter of the inactives have no number | Potency, µM (series often up to 36.5 µM), for the others: at the highest dose activity change, negative = inhibition, usual class: inhibitors | 310,000 compounds, 0.63% hits | AID 720579, 2013; active = well fitted inhibition curve with a large enough effect; inconclusive = small, poorly fitted or top-dose-only effect; inactive = no such curve, though single readings can be large or run the other way; tested in A549 cells; note: nearly all actives have a fitted effect of over 35% in size; inactives centre near -10
# VACV Venus inh: qHTS for Stage-Specific Inhibitors of Vaccinia Orthopoxvirus: Venus Reporter Primary qHTS; Vaccinia virus Venus reporter expression, fluorescence; Potency, µM (titrated, usually from 36.5 µM), for inactives: at the top dose activity change, negative = inhibition, most hits filed as inhibitors; 330,000 compounds, 0.46% hits; AID 720580, 2013; active means well fitted inhibition curve with a large enough effect; inconclusive means small, poorly fitted or top-dose-only effect; inactive means no such curve, though single readings can be large or run the other way; tested in A549 cells; note: nearly all actives have a fitted effect of over 30% in size; inactives centre near -10
# Starred values were filed as active, the others as inactive; i = inactive; ? = inconclusive; . = no result given; [ ] = another dose, or the depositor's remark. % is set by controls: 0 for no effect and ±100 for the full control effect; potency is the fitted concentration of half-maximal effect.
# Below each SMILES: VACV mCherry inh	VACV Venus inh
CCOC(=O)C1=CNS(=O)(=O)NC1c1ccccc1 (configuration not stated)
    i	0%
COC(=O)C1=CN(c2ccc(OC)cc2)C(N)=C(C#N)C1c1ccc(OC)cc1 (configuration not stated)
    ?	-14%
O=C(Nc1cc(-c2ccccc2)[nH]n1)c1ccccc1F
    -7%	-29%
CCOc1ccc(CNC(=O)c2nn(-c3ccc(OC)cc3)c(=O)c3c2c2ccccc2n3C)cc1
    -7%	-5%
COc1ccc(CN2CCN(Cc3ccccc3C(F)(F)F)CC2)c(OC)c1
    -9%	-5%
CN(C)CCNC(C(=O)Nc1cc(Cl)cc(Cl)c1)c1ccccc1 (configuration not stated)
    -7%	-5%
COc1cc(/C=C2\CCCc3c2nc2ccccc2c3C(=O)O)cc(Br)c1O
    5%	21%
CCOC(=O)c1c(NC(=O)CSc2cn(CCNC(=O)c3ccc(OC)c(OC)c3)c3ccccc23)sc2c1CCC2
    -18%	-9%
CC(=O)c1ccc(NC(=O)CSc2nc(N)c3cc4c(nc3n2)CCCC4)cc1
    i	-20%
CN=C1CC(C)(C)CC(=O)/C1=C(/O)CCCN1C(=O)c2ccccc2C1=O
    -9%	-10%
CCOC(=O)c1ccc[n+](CC(=O)c2ccc(OC)cc2)c1
    -1%	-11%
CC1(C)CC2CC(C)(CN2C(=O)COC(=O)c2ccc(Cl)cc2N)C1 (configuration not stated)
    .	-11%
O=C(O)c1cc(-c2ccc(/C=N/Nc3ccc([N+](=O)[O-])cn3)o2)ccc1Cl
    i	-3%
O=C(CN1CCOCC1)Nc1ccc([N+](=O)[O-])cc1Br
    -22%	-13%
Cc1nc(SCCO)c([N+](=O)[O-])[nH]1
    i	-7%
CC(=O)OC(C)C1C2=C(C(=O)CC1(C)O)C(=O)c1c(ccc(-c3ccc4c(c3O)C(=O)C3=C(C4=O)C(C(C)OC(C)=O)C(C)(O)CC3=O)c1O)C2=O (configuration not stated)
    ?	6%
Cc1cccc(C)c1NC(=S)N(Cc1ccco1)C1CCN(C(C)C)CC1
    -6%	-13%
CCS(=O)(=O)N1CCC(C(=O)Oc2ccccc2)CC1
    -9%	0%
CCN(CC)C(=O)CN1C(=O)C2CC=C(Cl)CC2C1=O (configuration not stated)
    i	-3%
O=C(NCc1ccccc1)[C@H]1C[C@@H]1[C@H](NP(=O)(c1ccccc1)c1ccccc1)c1ccccc1
    -10%	-23%
CS(=O)(=O)N(CC(=O)NC1CCCC1)c1ccc(Oc2ccccc2)cc1
    -17%	-28%
O=c1oc2ccccc2c(NC2CCCCC2)c1NS(=O)(=O)c1ccc(F)c(Cl)c1
    ?	-4%
COc1cc(Nc2ccn3nccc3n2)cc(OC)c1OC
    i	-8%
CC(C)(C)c1ccc(C(=O)NC(=S)NCC2CCCO2)cc1 (configuration not stated)
    -8%	-4%
CCOc1cccc(C(=O)Nc2ccccc2C(=O)N2CCN(C)CC2)c1
    -19%	-15%
O=C(C1CCN(c2ncnc3c2nc2n3CCCCC2)CC1)N1CCN(c2ccccc2F)CC1
    i	-18%
CCc1cc2c(NCc3ccco3)ncnc2s1
    -29%	-21%
CCC1CN(C(=O)C2CCN(S(=O)(=O)c3c(C)noc3/C=C/c3ccc(C)cc3)CC2)c2cc(C)ccc2O1 (configuration not stated)
    -9%[7.34 µM]	-8%[7.34 µM]
COc1ccccc1C1C=C(c2ccc(C(C)C)cc2)Nc2nnnn21 (configuration not stated)
    -2%	-24%
Cc1ccc2c3c([nH]c2c1)C(=O)CC(C)(C)S3
    -6%	-2%
CC(C)NC(=O)C1Cc2c(-c3ccc4c(c3)OCO4)ccnc2O1 (configuration not stated)
    i	3%
Cn1nc(N)c2c1N=P(N1CCOCC1)(N1CCOCC1)N=C2c1ccccc1
    -16%	6%
O=S(=O)(c1ccc(F)c(F)c1F)N1CCN(C(=S)Nc2ccccc2)CC1
    ?	?
COc1ccc(CC2(c3ccccc3)NC(=O)NC2=O)cc1 (configuration not stated)
    -5%	-21%
Cc1csc(NC(=O)/C=C/c2ccc3c(c2)OCO3)n1
    -13%	-26%
CCN(CCCNC(=O)CN1N=C(c2ccc(OC)cc2)CCC1=O)c1cccc(C)c1
    -12%	-7%
CCc1cc(=O)oc2cc(OCC(=O)NC3CC(C)(C)NC(C)(C)C3)ccc12
    -9%	-5%
Oc1ccc2ccccc2c1/C=C/c1ccc2c(Br)cc(Br)c(O)c2n1
    ?	168%[activator]
CCN1CCN(c2ccc(S(=O)(=O)N3CCCCC3)cc2NC(=O)c2cccc(C)c2[N+](=O)[O-])CC1
    ?	-18%
CCCCNC(=O)CCCCC(=O)N/N=C/c1ccccc1Cl
    -19%	-12%
CC12CCC(CC1O)C2C(=O)O (configuration not stated)
    -11%	-17%
NC(=O)C1CCN(C(=O)C2CCN(C(=O)Nc3ccccc3)CC2)CC1
    -14%	-8%
CC(C)C(=O)N1CCN(c2nc(-c3ccccc3)c3c(c2C#N)CC(C)(C)OC3)CC1
    .	-11%
C/C(=N\NC(=O)c1ccc(O)cc1O)c1cccnc1
    -10%	3%
COc1ccc(CN2CCNC(=O)C2CC(=O)NCCN2CCCCC2=O)c(F)c1 (configuration not stated)
    -7%	-13%
CCC1Sc2ccccc2N(CC(=O)NCc2ccc3c(c2)OCO3)C1=O (configuration not stated)
    i	-8%
COc1ccc(S(=O)(=O)NC(=O)C2(C)CCN2C(=O)Cc2ccc(-c3ccccc3)cc2)cc1 (configuration not stated)
    -8%	-9%
CC(=O)c1cccc(-n2c(=O)c3c4c(sc3n(CC(=O)Nc3ccccc3F)c2=O)CN(C(C)=O)CC4)c1
    -13%	-3%
CCCC(=O)Nc1nnc(-c2ccco2)s1
    .	-4%
O=C(OCC(=O)N1CCN(S(=O)(=O)c2ccc(Cl)cc2)CC1)c1ccc([N+](=O)[O-])o1
    -19%	-14%

# Exported bar-delimited: part of the list above
compound | VACV mCherry inh | VACV Venus inh
CC(C)(C)c1ccc(C(=O)NC(=S)NCC2CCCO2)cc1 (configuration not stated) | -8% | -4%
CCOc1cccc(C(=O)Nc2ccccc2C(=O)N2CCN(C)CC2)c1 | -19% | -15%
O=C(C1CCN(c2ncnc3c2nc2n3CCCCC2)CC1)N1CCN(c2ccccc2F)CC1 | i | -18%
CCc1cc2c(NCc3ccco3)ncnc2s1 | -29% | -21%
CCC1CN(C(=O)C2CCN(S(=O)(=O)c3c(C)noc3/C=C/c3ccc(C)cc3)CC2)c2cc(C)ccc2O1 (configuration not stated) | -9%[7.34 µM] | -8%[7.34 µM]
COc1ccccc1C1C=C(c2ccc(C(C)C)cc2)Nc2nnnn21 (configuration not stated) | -2% | -24%

# (cont.)
# Below each SMILES: VACV mCherry inh	VACV Venus inh
COC(=O)[C@@H](Cc1ccc(O)cc1)NC(=O)[C@H]1CCC(=O)N1C(=O)OCc1ccccc1
    4%	10%
c1csc(CN2CCNCC2)c1
    -3%	16%
CSc1nc(NS(=O)(=O)c2cc(C)c(Cl)cc2Cl)nn1C
    -9%	-14%
Cc1ccc[n+](CC(=O)N2CCCCC2)c1C
    i	-9%
Cc1cc(Sc2nc(NC(C)C)nc(NC(C)C)n2)nc(Cl)n1
    7.9µM*	?
O=C(CCn1nnc2ccccc21)NNC(=O)C1CCCCC1
    i	2%
Cc1ccc2c(C)c(C(=O)N3CCN(c4ncccn4)CC3)oc2c1C
    i	-13%
O=C(NC1CC(=O)N(c2ccc(F)cc2)C1)C(=O)c1c[nH]c2ccccc12 (configuration not stated)
    -5%	-14%
CCC1CCCCN1C(=O)CSc1n[nH]c(-c2ccccc2Cl)n1 (configuration not stated)
    -14%	-5%
O=C(Nc1ccc(S(=O)(=O)NCc2ccco2)cc1)c1ccncc1
    -14%	-15%
COc1ccc(/C(C)=N\NS(C)(=O)=O)c(OC)c1
    -13%	-9%
Cc1cc(-c2cccs2)n[nH]1
    .	-26%
COc1cc(NC(=O)Cn2ncc(Cl)c(Cl)c2=O)c(C)cc1[N+](=O)[O-]
    ?	?
COCCN(C(=O)CCC(=O)Nc1ccccn1)C(C(=O)NCCC(C)C)c1ccc(C)cc1 (configuration not stated)
    -8%	-3%
CC1CCN(c2cc(N)c(Cl)cc2[N+](=O)[O-])CC1
    -2%	-22%
CCOC(=O)N1CCN(c2nc(CN3CCCCC3CCO)nc3c(C)cccc23)CC1 (configuration not stated)
    i	-12%
O=C(CSc1nc2c([nH]c3ccccc32)c(=O)n1-c1ccc(Cl)cc1)N1CCCCCC1
    -3%	5%
CC(C)C(NC(=O)c1ccc(F)cc1)C(=O)Nc1cccnc1 (configuration not stated)
    3%	-5%
O=C(CSc1ccc(Cl)cc1)OCc1nnc(-c2ccccc2)o1
    -10%	-7%
CCOC(=O)c1nnc(-c2cccs2)nc1Oc1ccc(Cl)cc1
    -24%	-23%
COc1ccc(CC(=O)NCCc2csc(-c3ccc(Cl)cc3)n2)cc1
    -27%	?
COc1cc(/C=N/Nc2ccc(Cl)c(C(=O)O)c2)ccc1OC(=O)c1ccccc1F
    -5%	-5%
Cc1nc2sc(C(=O)N(C)Cc3ccccc3)c(NC(=O)c3ccccc3)c2c(C)c1Cl
    -7%	-3%
O=C(NC(Cc1ccccc1)C(=O)O)/C(=C/c1cccc([N+](=O)[O-])c1)NC(=O)c1ccco1 (configuration not stated)
    -23%	-14%
O=C(NCCc1nc2ccccc2[nH]1)c1cccc(Br)c1
    -11%	-8%
Cc1ccc(S(=O)(=O)N(C)C)cc1NC(=O)c1cc(-c2ccco2)nc2ccccc12
    -15%	3%
Cc1ccccc1NC(=O)C1CCN(C2=NS(=O)(=O)c3ccccc32)CC1
    i	-6%
c1coc(-c2nc3n(n2)C2(CCCCC2)[C@@H]2CCCC[C@@H]2N3)c1
    4%	24%
O=[N+]([O-])c1cccc2c(S(=O)(=O)N3CCOCC3)cccc12
    ?	-18%
COc1ccc(CCNC(=O)CN(c2ccc(C)cc2)S(=O)(=O)c2c(C)noc2C)cc1OC
    0%	-4%
CCCC1(CC(C)CC)C(=O)NC(=O)NC1=O (configuration not stated)
    ?	?
CC(C)C(NS(=O)(=O)c1cccc2nsnc12)C(=O)NC1CCCCC1C (configuration not stated)
    -4%[7.34 µM]	0%[7.34 µM]
COc1ccc2cc1Oc1ccc(cc1)C[C@H]1c3cc(c(OC)cc3CCN1C)Oc1c(O)c(OC)cc3c1[C@H](C2)N(C)CC3
    -7%	?
COC(=O)[C@@]1(Cc2ccccc2)[C@H]2C(=O)N(Cc3ccccc3)C(=O)[C@H]2[C@H]2CN=C(SCc3ccccc3)N21
    ?	-18%
CC1(OC(=O)C2CCCC2)C(=O)C=C2C=C(c3ccsc3)N(Cc3ccccc3)C=C2C1=O (configuration not stated)
    ?	-28%
CNC(=O)c1c(NC(=O)c2cccc(N3C(=O)CCC3=O)c2)sc2c1CCCC2
    0%	1%
CCCOc1ccc(S(=O)(=O)NCCCN2CCOCC2)c2ccccc12
    .	?
Clc1ccc(SCc2cn3ccccc3n2)cc1
    -11%	-6%
C#CCN(Cc1nc(N2CCOCC2)c2ccc(Cl)cc2n1)Cc1ccco1
    -8%	6%
CCNC(=O)C1CC(=O)N(c2ccc(Br)cc2)C1 (configuration not stated)
    -15%	-8%
CCN(CC)S(=O)(=O)c1ccc(O)c(NS(=O)(=O)c2ccccc2F)c1
    -18%	-10%
CN(C)C(CNC(=O)c1ccc(S(=O)(=O)Nc2cccc(C(F)(F)F)c2)cc1)c1ccco1 (configuration not stated)
    -5%	-19%
O=C(COC(=O)/C=C/c1cccc(F)c1)Nc1ccc(Cl)cn1
    i	1%
CCC(C)NC(=O)C1CCN(S(=O)(=O)c2ccc(OC)cc2)CC1 (configuration not stated)
    i	-12%
CCC1CN(C(=O)C2CCN(S(=O)(=O)c3c(C)noc3/C=C/c3ccccc3F)CC2)c2cc(Cl)ccc2O1 (configuration not stated)
    -11%[7.34 µM]	-12%[7.34 µM]
COc1ccc(C(=O)Nc2ccc3c(c2)nc(CN2CCN(C(C)=O)CC2)n3C)cc1
    .	-4%
O=C(COC(=O)c1cccs1)Nc1cc(S(=O)(=O)N2CCOCC2)ccc1Cl
    i	-10%
Cc1cc(/C=N/n2cnnc2)c(C)n1-c1ccc(Cl)cc1
    i	-8%
CC1CC(C)CN(C(=O)C2CCCN(S(=O)(=O)c3cccc4nonc34)C2)C1 (configuration not stated)
    .	?
O=C(c1ccc2c(c1)OCO2)c1ccc[nH]1
    i	-8%

# Later entries.
# Below each SMILES: VACV mCherry inh	VACV Venus inh
CCOC(=O)COc1ccc([N+](=O)[O-])cc1-c1ccnc2cc(-c3ccc(Cl)cc3)nn12
    -17%	-16%
COc1ccc(N(C(C)C(=O)N/N=C/c2ccc(OCC(C)C)cc2)S(C)(=O)=O)cc1 (configuration not stated)
    -11%	-29%
Cc1cccc(NC(=O)c2cc([N+](=O)[O-])ccc2NC2CCCCC2)c1
    ?	-10%
Cc1noc(C)c1S(=O)(=O)N(CC(=O)Nc1ccc2c(c1)OCO2)c1ccc(C(C)C)cc1
    i	-4%
CC1c2cc3c(cc2CCN1CC(=O)Nc1ccccc1)OCCCO3 (configuration not stated)
    8%	-2%
Cc1c(C(=O)NCc2cccc([N+](=O)[O-])c2)sc(=O)n1Cc1cccc(F)c1
    i	-11%
C[C@@H]1CN([C@@H](C)CO)C(=O)CCCn2nncc2CO[C@H]1CN(C)Cc1ccc2c(c1)OCCO2
    1%	7%
